# Bioassay records as filed in PubChem.
# TRPV1 PAM = enhances activation of the human vanilloid receptor TRPV1. Q8NER1. AID 540277. TRPV1-expressing cells, Fluo-8 calcium influx, capsaicin EC20 potentiation; host cell line not named in the record; control for the full effect not named in the record. hit rate 0.02% among 320,000. potentiation, % at 8.33 µM; active means potentiation above 80%; inconclusive means 30% to 80%; inactive means below 30%; further: 0% is about no effect
# Target sequence (Q8NER1 whole entry, looked up): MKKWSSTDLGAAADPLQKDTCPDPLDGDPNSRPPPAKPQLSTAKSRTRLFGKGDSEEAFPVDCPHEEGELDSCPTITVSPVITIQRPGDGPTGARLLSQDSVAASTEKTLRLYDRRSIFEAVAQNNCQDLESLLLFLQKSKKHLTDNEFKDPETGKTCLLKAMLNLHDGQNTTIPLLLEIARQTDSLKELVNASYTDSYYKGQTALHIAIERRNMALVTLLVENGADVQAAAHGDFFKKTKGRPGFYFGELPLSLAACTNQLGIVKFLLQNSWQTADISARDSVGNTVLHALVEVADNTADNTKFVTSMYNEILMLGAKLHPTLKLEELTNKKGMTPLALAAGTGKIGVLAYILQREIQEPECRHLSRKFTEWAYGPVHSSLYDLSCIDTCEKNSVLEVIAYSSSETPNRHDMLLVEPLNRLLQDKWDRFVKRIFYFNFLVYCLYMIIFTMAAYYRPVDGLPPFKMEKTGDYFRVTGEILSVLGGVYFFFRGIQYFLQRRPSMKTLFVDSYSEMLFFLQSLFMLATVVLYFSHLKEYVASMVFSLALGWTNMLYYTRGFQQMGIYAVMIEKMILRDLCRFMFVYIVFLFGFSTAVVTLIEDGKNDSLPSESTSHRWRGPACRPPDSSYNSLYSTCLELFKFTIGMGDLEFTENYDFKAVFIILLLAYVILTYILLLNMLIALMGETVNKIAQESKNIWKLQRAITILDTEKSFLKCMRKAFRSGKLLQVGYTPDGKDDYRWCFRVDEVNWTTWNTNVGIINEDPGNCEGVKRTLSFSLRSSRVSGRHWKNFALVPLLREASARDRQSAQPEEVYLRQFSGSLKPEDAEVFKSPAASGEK
#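 TRPV1-expressing cells were cultured overnight at 35.5C and loaded with Fluo-8 calcium dye for 40 to 90 min at room temperature. After a 10 s baseline, compound was added and calcium influx was read kinetically for 3 min (ex 480/em 520 nm).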
# D2 agonist = agonists of human D2 dopamine receptor (beta-arrestin) | P14416 | DiscoveRx PathHunter D2 beta-arrestin, luminescence, 90 min; 100% = 57 uM dopamine signal | activation, % (no concentration beside the values) | hit rate 0.084% among 360,000 | AID 624465; in the data active = activation above about 40%; inconclusive = about 15% to 40%; inactive = below about 15%; further: compound concentration not given in the record; the text of the record calls up to 30% inactive
#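 DiscoveRx PathHunter D2 beta-arrestin cells (2,100/well) attached overnight, then compound-stimulated 90 min at 37 C in HBSS/10 mM HEPES/0.1% Tween-20 buffer; beta-galactosidase complementation read by luminescence after 1 h at ambient temperature. Dopamine 57 uM final (EC100) as control.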
# Six1-Eya2 blk = blocks human Six1 binding to Eya2; AID 651725; AlphaScreen GST-Six1/His-Eya2 binding, biochemical; active compounds read low; control for the full effect not named in the record; hit rate 0.56% among 360,000; activity change, % (concentration not given with the values); in the data active = activity change below about -65%; inconclusive = about -30% to -65%; inactive = above about -30%; further: on the % scale 0 is the no-effect control and ±100 the full control effect
#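 Homogeneous AlphaScreen proximity assay pairing GST-Six1 with His-tagged Eya2 (added as 5X mix: 250 nM and 500 nM) in 50 mM Tris pH 8.0, 300 mM NaCl, 1 mM TCEP. Glutathione donor and nickel acceptor beads; 1 h, 37 °C, dark.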
# D2 potentiator = positive allosteric modulators of human D2 dopamine receptor | P14416 | DiscoveRx D2 beta-arrestin cells, luminescence, 90 min; 100% = 57 uM dopamine signal | potentiation, % (no concentration beside the values) | hit rate 0.23% among 360,000; active = potentiation of 50% or more; inconclusive = 30% to 50%; inactive = 30% or less;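 further: compound concentration not given in the record; tested on top of an EC20 dose of dopamine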
#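 D2 cells co-treated with compound plus 50 nM dopamine (EC20) for 90 min at 37 deg C to detect potentiation. Beta-arrestin recruitment was read as enzyme-fragment luminescence after 1 h at ambient temperature. Full response was set by 57 uM dopamine.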
# CtBP-E1A blk = CtBP/E1A binding inhibition. hit rate 0.49% among 340,000. activity change, % (no concentration beside the values). AID 651724. AlphaScreen GST-E1A/His-CtBP binding, 1536-well; active compounds read low; control for the full effect not named in the record; in the data active means activity change below about -65%; inconclusive means about -30% to -65%; inactive means above about -30%; further: on the % scale 0 is the no-effect control and ±100 the full control effect
#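 In 5 uL wells, 23 nL compound meets equimolar GST-E1A and His-CtBP (5X stock 125 nM each) for 2 h, 37 °C. Beads (5X, 50 ug/mL) then 1 h, 37 °C, dark.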
# PINK1 expr mod = PINK1 expression modulation; PINK1 immunofluorescence, high-content cytometry, 24 h; Potency, µM (top dose mostly 76.6 µM), for inactives: top-dose activation (PINK1 increase), hits mostly activators; hit rate 0.2% among 410,000; active = well fitted activation curve with a large enough effect; inconclusive = small, poorly fitted or top-dose-only effect; inactive = flat fitted curve, though single readings scatter; cell line not stated here;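 further: potency means the concentration at half of the fitted maximal effect; % of control where 0% means no effect; nearly all actives have a fitted effect of over 65% in size; a mitochondrial uncoupler was the plate control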
#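 Fluorescence from anti-PINK1 antibody, together with nuclear and cell stains, was scanned on a laser-scanning cytometer. Before staining, stable-line cells were incubated 24 hours with compounds at 5 concentrations; primary antibody 12 h at 10 degrees C.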
# Sfp inh = blocks B. subtilis Sfp PPTase activity | Q9F4F7 | Biochemical Sfp PPTase activity, qHTS | Potency, µM, without a hit: max response, negative = inhibition, most hits filed as inhibitors | hit rate 3.5% among 310,000; active means well fitted inhibition curve with a large enough effect; inconclusive means small, poorly fitted or top-dose-only effect, or another doubt; inactive means no such curve, though single readings can be large or run the other way;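 further: the enzyme is Sfp with the accession as filed and its product quenches rhodamine fluorescence; potency means the concentration at half of the fitted maximal effect; 0% = enzyme reaction without inhibitor and -100% = no enzyme wells; top concentration of the series not given in the record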
#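 Reaction rates are the 30-min fluorescence difference (ex 525, em 598 nm) in wells containing 15 nM Sfp, 5 uM rhodamine-CoA and 12.5 uM BHQ-2-YbbR at pH 7.6 with 10 mM MgCl2.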
# Active calls of the source: *; ? = inconclusive; . = not tested or not shown; [ ] = another dose, or the depositor's remark.
Compound	TRPV1 PAM	D2 agonist	Six1-Eya2 blk	D2 potentiator	CtBP-E1A blk	PINK1 expr mod	Sfp inh
CC1(c2nnc(-c3ccc(Cl)cc3)o2)CC(c2ccc([N+](=O)[O-])cc2)=NO1 (stereo unspecified)	-6	2.7	-4	21	0	1.2%	-2%
CN(C)S(=O)(=O)c1cccc(COC(=O)CCNC(=O)c2ccc([N+](=O)[O-])cc2)c1	-11	5.1	23	-14	.	0.8%	.
COc1ccc(OCC(=O)NNC(=O)c2ccc(-c3ccccc3)cc2)cc1	.	0.3	-19	-3	6	16%	-6%
CC(C)c1ccc(OCC(=O)N2CCN(C(=O)c3ccco3)CC2)cc1	2	5.9	-2	9	3	1.9%	4%
O=C(COc1ccccc1Cc1ccccc1)Nc1cccnc1	-25	4.2	3	?	4	3.8%	.
COc1ccccc1CN1CCN(C(=O)c2cccc3ccccc23)CC1	.	-2.7	-6	-12	-5	-0.6%	.
O=S1(=O)NC(=NCCOCCO)c2ccccc21	3	1.0	-17	-4	-7	1.7%	17%
CC(C)(C)OC(=O)CC12CCCCC1NC(=O)O2 (stereo unspecified)	4	-6.0	3	-3	5	-1.5%	11%
COc1cc(C(=O)NCC(c2cccs2)N2CCOCC2)c([N+](=O)[O-])cc1OC (stereo unspecified)	1	-4.7	-7	-67	9	-1.4%	.
CCc1ccc(-c2nc(CSCC(=O)NCc3ccco3)c(C)o2)cc1	-13	6.2	-14	-1	-4	-0.2%	-20%
Cc1ccc(C(=O)N/N=C\c2ccncc2)s1	-6	-5.3	0	-12	3	-0.7%	-3%
S=C1NCCOCCOCCOCCN1	-2	-0.7	-6	-22	1	-0.5%	-2%
COc1ccc(-c2nc(Cn3c(SCc4ccccc4F)nc4ccncc43)c(C)o2)cc1	-9	-4.2	-3	-12	-7	2.3%	-9%
CC(=O)N1CCc2c(sc(NC(=O)CN3C(=O)CCC3=O)c2C(N)=O)C1	0	2.5	-8	-12	-12	0.5%	-7%
O=C(N/N=C/c1sc(N2CCOCC2)nc1-c1ccccc1)c1cccc(S(=O)(=O)N2CCCC2)c1	-11	3.0	3	4	-26	?	21%
Cc1ccc(S(=O)(=O)NN=C2C3CC4CC(C3)CC2C4)cc1[N+](=O)[O-]	15	-0.6	2	16	2	1.7%	-15%
CC1N=C(N)C(c2nc3ccccc3n2C)=C1O (stereo unspecified)	-1	-0.6	3	1	9	-0.1%	-3%
O=C(COC(=O)COc1ccc(Br)cc1)NC1CCCC1	.	-4.8	8	13	-1	2.7%	.
COCCNc1nc(Nc2ccc(Cl)cc2F)c2sccc2n1	.	1.6	6	-7	-10	0.6%	.
Cc1cc2nc(CSc3ccc(Cl)cc3)cc(=O)n2[nH]1	18	-1.3	1	-1	7	2.9%	3%
Cc1cc(OCCOCCNCc2ccccc2)ccc1C(C)C	-8	-5.3	-3	-9	.	10%	79µM*
C/C(=N\NC(=O)c1cc(-c2ccc(O)cc2)nc2ccccc12)c1cccnc1	14	-1.7	5	-16	-8	0.9%	1%
O=C(NC(=S)NNC(=O)c1ccccc1[N+](=O)[O-])c1ccc(Br)cc1	-7	4.7	7	-11	-1	2.9%	79µM*
Cc1cccc(C)c1NC(=O)COC(=O)c1cc(-c2cccnc2)nc2ccccc12	-1	7.6	-10	0	.	?	12%
COc1ccccc1CNC(=O)CN1C(=O)NC2(CCOc3ccccc32)C1=O (stereo unspecified)	.	4.7	4	0	7	1.2%	.
Cc1cccc(N2CCN(C(=O)CCNS(=O)(=O)c3ccc4c(c3)oc(=O)n4C)CC2)c1C	-7	3.7	8	5	0	4.6%	24%
Cc1ccc(CNC(=O)CSc2ncc(C(=O)Nc3ccccc3)c(=O)n2C)cc1	-7	0.1	-6	8	6	1.2%	.
CCc1ccc(NC(=O)COC(=O)CC2CCCC2)cc1	.	-4.3	10	-6	2	-5.5%	.
COc1ccc(CCNC(=O)CCCCC(=O)NCCc2ccc(OC)c(OC)c2)cc1OC	.	-0.5	21	-3	7	2.6%	.
Cc1ccc(C)c(OCCC(=O)N2CCN(S(=O)(=O)c3cc(F)ccc3F)CC2)c1	-11	-2.5	-1	1	.	1.3%	.

# Following part
# Sequence of screens – TRPV1 PAM	D2 agonist	Six1-Eya2 blk	D2 potentiator	CtBP-E1A blk	PINK1 expr mod	Sfp inh
COc1ccc(OC)c(NC(=O)C2C(C(=O)O)C3(Cl)C(Cl)=C(Cl)C2(Cl)C3(Cl)Cl)c1 (stereo unspecified)
→ 0	3.6	-11	5	1	-2.6%	-1%
CC(C)CCN1CCC(n2nccc2NC(=O)c2ccc3c(c2)OCO3)CC1
→ 13	0.9	0	-5	-2	-1.3%	12%
Cc1csc(=O)n1CCC(=O)OCC(=O)NNC(=O)c1ccccc1
→ -5	-4.7	0	-18	0	1.8%	.
O=S(=O)(c1ccc(NC(=S)NCc2ccco2)cc1)N1CCCC1
→ -2	-0.7	7	11	2	-2.1%	-21%
CCc1nnc(NC(=O)CSc2nnc(-c3ccc(S(=O)(=O)N4CCCC4)cc3)n2CC)s1
→ ?	0.4	-2	1	3	-1.4%	6%
COC(=O)Nc1ccc(S(=O)(=O)NCCO)cc1
→ -2	-0.7	7	-6	-5	1.2%	16%
CCN(CC)CCNC(=O)c1ccc(NC(=O)C2CCN(c3ncnc4sc(C)c(C)c34)CC2)cc1
→ 1	0.2	-25	-14	-28	-1.3%	-10%
Cc1ccccc1NC(=O)/C(=C/c1ccccc1)c1ccccc1
→ -26	-1.7	16	-4	3	-0.1%	-8%
Cc1ccc(NC(=O)C2CSC3(C)CCC(=O)N23)cc1S(=O)(=O)N1CCOCC1 (stereo unspecified)
→ 8	-6.3	0	-3	3	3.5%	.
Cc1cc(C)n(CC2CC(=O)N(c3ccc(Cl)c(Cl)c3)C2=O)n1 (stereo unspecified)
→ ?	-6.0	-2	-17	5	3.0%	6%
Cc1cc(C)nc(-n2nc(C)cc2NC(=O)CN2CCc3ccccc3C2)n1
→ -13	-2.6	-1	-9	-9	0.2%[38.3 µM]	3%
Cc1ccc(N2CC(C(=O)Nc3nccs3)CC2=O)cc1 (stereo unspecified)
→ -8	1.1	5	-7	3	-3.0%[38.3 µM]	23%
CCOc1ccc(/C(O)=C2/C(=O)C(=O)N(c3ncccn3)C2c2ccccc2)cc1 (stereo unspecified)
→ 5	-8.4	7	-11	.	-0.3%	10%
CCCN1C(=O)/C(=N\OCC(=O)NCC(F)(F)F)c2ccccc21
→ -8	0.5	-3	-20	-2	-0.6%	-1%
Cc1onc(-c2ccccc2)c1C(=O)Nc1cccnc1
→ 9	-2.4	5	-8	-9	-0.6%	-6%
Cc1ccc(C)n1-c1nn(S(=O)(=O)c2cccc3cccnc23)c2cccc(F)c12
→ 9	3.3	-5	-8	-2	2.4%	17%
Cc1cc2nc(-c3ccc(SCC(=O)Nc4ccc5c(c4)OCCO5)nc3)[nH]c2cc1C
→ 0	1.8	-18	2	-9	7.0%[38.3 µM]	-26%
COc1ccc(CCNC(=O)C2CCCN(S(=O)(=O)c3ccccc3)C2)cc1 (stereo unspecified)
→ -7	0.8	2	18	-2	3.4%	13%
CCOC(=O)c1ccc2c(c1)nc(SC/C(O)=C(\C#N)c1nc3ccccc3[nH]1)n2CC
→ 9	-1.1	0	-25	4	40µM*	18%
COc1ccc(C2SCC(C(=O)O)N2C(C)=O)cc1 (stereo unspecified)
→ -2	1.7	4	12	2	6.3%[38.3 µM]	22%
COc1ccc(N(C(=O)c2cccc(OC)c2OC)C2C=CS(=O)(=O)C2)cc1 (stereo unspecified)
→ -16	-1.2	2	1	2	0.6%[38.3 µM]	15%
Cc1ccccc1Nc1nc(N)nc(COC(=O)c2nn(C)c(=O)c3ccccc23)n1
→ .	-3.2	4	1	-1	0.5%	.
CCC(CO)Oc1cc(NCc2cccnc2)c2ncn(C(C)C)c2c1 (stereo unspecified)
→ .	7.0	7	-10	-15	0.5%	.
C#CCOCCOCCOCCNc1nc(N2CCN(C(=O)[C@H](Cc3ccc(O)cc3)n3cc([C@@H](N)CC(C)C)nn3)CC2)nc(N2CCN(C(=O)[C@H](Cc3cc4ccccc4[nH]3)n3cc([C@@H](N)CC(C)C)nn3)CC2)n1
→ 22	-4.5	-16	-9	-13	9.2%	-19%
Oc1ccc(Nc2nc(-c3ccccc3F)nc3ccccc23)cc1
→ 22	-4.0	-11	-2	-2	0.4%	10%
COCCNC(=O)c1cccc(OC2CCN(Cc3ccc(C(=O)OC)cc3)CC2)c1
→ -9	-4.4	8	-11	21	-1.0%	11%
COc1cccc(NC(=O)C(C)Sc2nnc(C3CC3)n2C2CC2)c1 (stereo unspecified)
→ 3	-7.1	-8	-2	-3	1.6%	.
CSc1cc(-c2ccccc2)n(Cc2c(Cl)cccc2Cl)c(=O)c1C#N
→ 9	-2.0	-1	-7	5	7.8%	12%
CCc1ccccc1NC(=O)CN1CCN(C(=O)CNC(=O)c2ccc(N3CCCC3=O)cc2)CC1
→ 9	-3.0	9	-1	8	0.3%	.

# Grouped by structure, those above with an NH in an aromatic ring.
# Sequence of screens – TRPV1 PAM	D2 agonist	Six1-Eya2 blk	D2 potentiator	CtBP-E1A blk	PINK1 expr mod	Sfp inh
Cc1cc2nc(CSc3ccc(Cl)cc3)cc(=O)n2[nH]1
→ 18	-1.3	1	-1	7	2.9%	3%
Cc1cc2nc(-c3ccc(SCC(=O)Nc4ccc5c(c4)OCCO5)nc3)[nH]c2cc1C
→ 0	1.8	-18	2	-9	7.0%[38.3 µM]	-26%
CCOC(=O)c1ccc2c(c1)nc(SC/C(O)=C(\C#N)c1nc3ccccc3[nH]1)n2CC
→ 9	-1.1	0	-25	4	40µM*	18%
C#CCOCCOCCOCCNc1nc(N2CCN(C(=O)[C@H](Cc3ccc(O)cc3)n3cc([C@@H](N)CC(C)C)nn3)CC2)nc(N2CCN(C(=O)[C@H](Cc3cc4ccccc4[nH]3)n3cc([C@@H](N)CC(C)C)nn3)CC2)n1
→ 22	-4.5	-16	-9	-13	9.2%	-19%
